KCNQ2 pot – potentiators of rat KCNQ2 potassium channel; O88943; CHO-K1 KCNQ2, FluxOR thallium flux fluorescence; active compounds read high; B-score at 10 µM; 310,000 compounds, 0.54% hits; AID 2239;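 active = fluorescence ratio B-score at least 3 SD of library B-scores, with initial fluorescence B-score within 3 SD, cut at about 5.3 in these data; same plate scores as AID 2156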;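 note: B-score of peak minus minimum over baseline fluorescence ratio after K+ and Tl+ stimulus; positive B-score means potentiation of KCNQ2 with more thallium influx and brighter signal; only the inactives scoring about 0 or higher are listed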
Target sequence (O88943 whole entry, looked up): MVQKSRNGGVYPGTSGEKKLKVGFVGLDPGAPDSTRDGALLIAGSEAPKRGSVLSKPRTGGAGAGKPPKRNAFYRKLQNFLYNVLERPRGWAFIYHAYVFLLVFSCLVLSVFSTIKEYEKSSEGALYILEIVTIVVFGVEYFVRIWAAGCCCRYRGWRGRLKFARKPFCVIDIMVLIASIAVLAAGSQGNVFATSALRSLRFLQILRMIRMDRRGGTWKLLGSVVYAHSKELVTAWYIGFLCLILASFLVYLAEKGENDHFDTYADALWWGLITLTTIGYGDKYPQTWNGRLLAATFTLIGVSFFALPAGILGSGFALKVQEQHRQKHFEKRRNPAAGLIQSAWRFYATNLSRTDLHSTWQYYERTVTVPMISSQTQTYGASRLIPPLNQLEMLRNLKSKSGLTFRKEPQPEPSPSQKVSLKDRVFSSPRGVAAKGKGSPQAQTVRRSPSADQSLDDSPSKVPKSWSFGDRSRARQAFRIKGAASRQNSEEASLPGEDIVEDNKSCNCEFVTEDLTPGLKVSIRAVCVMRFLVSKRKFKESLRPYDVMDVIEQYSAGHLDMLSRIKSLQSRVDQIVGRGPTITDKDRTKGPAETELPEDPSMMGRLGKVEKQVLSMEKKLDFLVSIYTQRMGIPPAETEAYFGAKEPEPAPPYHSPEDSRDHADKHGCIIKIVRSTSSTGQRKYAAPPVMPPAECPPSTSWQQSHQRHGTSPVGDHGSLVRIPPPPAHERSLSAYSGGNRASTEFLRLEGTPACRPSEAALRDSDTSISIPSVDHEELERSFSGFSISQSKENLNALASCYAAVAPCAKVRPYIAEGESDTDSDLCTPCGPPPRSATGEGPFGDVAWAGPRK
KCNQ2 pot baseline – second read-out of KCNQ2 pot, no call of its own (marks repeat the call); B-score; compound at 10 µM; measured here: initial fluorescence intensity artifact check;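 brightness before thallium and not channel activity; 0 = typical well and far values either way flag optical interference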
Active calls of the source: *.

SMILES	KCNQ2 pot	KCNQ2 pot baseline
Cc1ccc(-c2noc(CSc3nnc(-c4ccncc4)n3-c3ccc(F)cc3)n2)cc1	1.9	-0.12
COc1cccc(C(=O)NC(=S)Nc2ccc(N3CCCC3)cc2)c1	0.21	0.07
Cc1ccc(NC(=O)CCn2cccc2)cc1F	4	-1
CC1OC(Oc2ccc3ccc(=O)oc3c2-c2c(O)ccc3cc(Oc4ccc5ccc(=O)oc5c4)c(=O)oc23)C(O)C(O)C1O (centres undefined)	0.55	0.02
O=C(CN1C2=NCCN2c2ccccc21)c1ccc(Br)s1	0.02	0.31
O=C1NC(O)(c2ccccc2)Oc2ccccc21 (centres undefined)	1.2	-0.69
CCCC(=O)Nc1ccc(C(N)=O)cc1	0.17	0.98
CCn1c(NC(=O)C2CCCCC2)nc2ccccc21	4.1	-0.68
N#CCCN(Cc1cccnc1)C(=O)Nc1ccc(Cl)c(Cl)c1	2.4	0.13
COc1ccc(-c2csc(N(CCCN(C)C)C(=O)c3ccccc3Cl)n2)cc1	2.1	1.1
COc1ccccc1/C=N/NC(=O)c1ccc(C)nc1	0.02	1.5
Cc1[nH]n(-c2ccc([N+](=O)[O-])cc2)c(=O)c1C=NCCc1ccc(S(N)(=O)=O)cc1	3	-1.7

Whole records as entered above.
`COc1ccccc1/C=N/NC(=O)c1ccc(C)nc1` in the list: KCNQ2 pot = 0.02; KCNQ2 pot baseline = 1.5
`N#CCCN(Cc1cccnc1)C(=O)Nc1ccc(Cl)c(Cl)c1` in the list: KCNQ2 pot = 2.4; KCNQ2 pot baseline = 0.13
`COc1cccc(C(=O)NC(=S)Nc2ccc(N3CCCC3)cc2)c1` in the list: KCNQ2 pot = 0.21; KCNQ2 pot baseline = 0.07

Following part.
SMILES	KCNQ2 pot	KCNQ2 pot baseline
O=C(NCc1ccco1)C(=O)NCC1OCCN1S(=O)(=O)c1ccc(Cl)cc1 (centres undefined)	0.21	-0.84
O=C(CCN1C(=O)C2CCCCC2C1=O)N1CCN(S(=O)(=O)c2c(F)cccc2F)CC1 (centres undefined)	0.86	-0.56
Cc1cc(=O)oc2cc(OC(C)C(=O)NCC3CCCO3)ccc12 (centres undefined)	0.63	-0.14
CC(CCc1ccccc1)NC(=O)C1CCN(C(=O)c2sccc2-n2cccc2)CC1 (centres undefined)	0.38	-1.4
COc1ccc(-c2cn[nH]c2-c2ccc(O)cc2O)cc1OC	0.09	-0.94
O=C(Cn1cc2c(n1)CCCC2)NCCc1ccccc1	0.46	0.38
COc1ccc(NC2CCCN(C(=O)CCCN3CCCCC3=O)C2)cc1 (centres undefined)	0.56	-0.11
CC1(C)OC(=O)C(C(c2ccccc2)C(C#N)C(N)=O)=C(O)O1 (centres undefined)	0.47	-0.61
NC(=O)c1ccsc1NC(=O)COC(=O)c1ccc(Cl)c(N)c1	0.96	2.3
Cc1cccc(N2CCN(C(=O)C3CCC(=O)N(Cc4ccccc4F)C3)CC2)c1C (centres undefined)	0.09	-1.5
CCCc1nc(SCC(=O)Nc2nccs2)c2ccccc2n1	1.3	1.1
CC(=O)N1CCc2cc(S(=O)(=O)C(C)CC(=O)Nc3ccc(OC(F)(F)F)cc3)ccc21 (centres undefined)	1.2	0.52
COc1ccc(C2=NN(C(=O)C(O)c3ccccc3)C(O)(C(F)(F)F)C2)cc1 (centres undefined)	1.4	-0.06
O=c1c2ccccc2nnn1CSc1nnc(-c2ccco2)o1	0.01	1.7
O=C(Cc1ccccc1)N/N=C/c1ccc([N+](=O)[O-])s1	0.6	1.6
CS(=O)(=O)c1ccc(Sc2nc3ccccc3[nH]2)c([N+](=O)[O-])c1	0.12	-0.1
COCCN1C=C(C(=O)OC)C(c2ccc3c(c2)OCO3)C(C(=O)OC)=C1	1	0
CC(=O)Nc1sc(C)c(C)c1C(=O)OC1CCOC1=O (centres undefined)	0.97	-1.8
O=C(Nc1cccc2ccccc12)c1ccc([N+](=O)[O-])s1	2	-4.7
O=C(COc1ncnc2sccc12)N1CCN(S(=O)(=O)c2ccc(Cl)cc2)CC1	1.8	1.1
O=C(N/N=C/c1cnc2ccccc2n1)c1cccc(F)c1	1.4	-2.2
COCc1ccc2oc(C(=O)O)cc2c1	0.27	-0.34
Cc1ccn2c(C(=O)N/N=C\c3ccc4c(c3)OCO4)c(C)nc2c1	1.6	0.54
CCCCn1c(-c2ccc(OC(F)F)cc2)nc2c1c(=O)[nH]c(=O)n2CC(C)C	0.21	-2.4
CC(C)(C)c1ccc(OCCC(=O)Nc2cccc(S(=O)(=O)N3CCOCC3)c2)cc1	1.4	-0.65
COCCN(C(=O)Cc1cccs1)C(C(=O)NCc1ccc(OC)cc1)c1ccc(C)cc1 (centres undefined)	0.07	1.4
Cc1nnsc1Sc1ccccc1C(=O)O	0.01	0.6
Cc1ccc(NS(=O)(=O)c2cccc3nsnc23)cc1[N+](=O)[O-]	0.44	-0.15
CN=C(C)C1=C(O)C(C(=O)OC)C(C)(C)CC1=O (centres undefined)	0.45	0.42
O=C(NCc1cccs1)c1cc(S(=O)(=O)N2CCCCC2)ccc1Cl	0.23	-0.08
Cc1ccc(/C=N/NC(=O)c2cc(-c3ccncc3)nc3ccccc23)o1	0.89	0.28
CCOC(=O)N1CCN(C(=O)CN2C(=O)COc3ccc(C)cc32)CC1	0.68	0.68
Cc1ccc(C)c(NC(=S)N2CCCCC2CO)c1 (centres undefined)	0.41	-0.26
N#Cc1cccc(Cn2nnc(-c3ccccc3)n2)c1	0.64	0.07
COc1ccc(CN2CCN(C(=O)c3ccco3)CC2)cc1	1.8	1.2
CO/N=C/C(C#N)=C/c1cc(C(=O)c2ccc(F)cc2)cn1C	1.9	-1.6
Cc1cc(=O)c(C(=O)O)cn1Nc1ccc(F)cc1	0.19	-1.6
Cn1nnc(-c2ccc(OCc3ccccc3F)cc2)n1	0.06	-0.46
COc1cccc(-c2cccc(NC(=O)C3CCN(CC4CCOC4)CC3)c2)c1 (centres undefined)	0.87	0.97
COc1ccccc1C(=O)NNC(=S)Nc1ccccc1	0.03	0.21
N/C(=N\OC(=O)c1cccc2ccccc12)c1cccnc1	1.3	0.61
Cc1cc(NC(=O)NC2(C(F)(F)F)Oc3ccc(Cl)cc3O2)no1 (centres undefined)	0.94	1.6
NC(Cc1c[nH]c2ccccc12)C(=O)NCc1ccco1 (centres undefined)	0.22	-0.79
O=C(Nc1cnc2ccccn2c1=O)c1ccc(Cl)cc1	1.5	-1.2
CC(C)n1nc(C(=O)OCC(=O)N(C)C2CCS(=O)(=O)C2)c2ccccc2c1=O (centres undefined)	1.3	1.6
COc1ccccc1/C=C/C(=O)OCC(=O)NCc1ccco1	0.46	1.1
CC1Oc2ccccc2N(CC(=O)N2CCCCCC2)C1=O (centres undefined)	0.03	-0.19
CCC(C)(C)NC(=O)c1cccc(NC(=O)C(C)C)c1	0.01	1.6
Cc1ccc(NC(=O)CCNS(=O)(=O)c2ccc(OC(F)(F)F)cc2)c(O)c1	0.86	0.76
O=C(COc1ccc(Cl)cc1)Nc1ccc2c(c1)nc1n2CCOC1	1.1	-0.7
CCOC(=O)C(=O)Nc1nnc(C2CCCCC2)s1	0.43	1.1
COC(=O)[C@@H](NC(=O)NCCC1=CCCCC1)C(C)C	0.65	1.7
O=c1cc(-c2ccc(F)cc2)oc2ccccc12	0.47	0.02
COc1ccc(N2CCN(S(=O)(=O)c3cccc4nsnc34)CC2)cc1	1.3	-0.62
Cc1ccc(COC(=O)CCCN=C2NS(=O)(=O)c3ccccc32)cc1	0.45	0.94
CCOc1ccc(C(=O)NCC(=O)OCc2c(C)noc2C)cc1	0.77	-1.6
CCCCN(C)CCCNC(=O)c1cc(-c2cccs2)nc2ccccc12	1.9	-0.9
O=C(NCCc1c[nH]c2ccccc12)C1CCN(S(=O)(=O)c2ccccc2F)CC1	0.25	1.1
CCCCN(CC)S(=O)(=O)c1ccc(C(=O)N=c2sc3cc(NC(C)=O)ccc3n2C)cc1	1.2	-2.4
CC1(C)OC(=O)C(=CNCCc2ccc(O)cc2)C(=O)O1	0.03	-1.4

More results.
SMILES	KCNQ2 pot	KCNQ2 pot baseline
Brc1cnc(N2CCCC2)nc1N1CCOCC1	1.1	-1.8
CCOC(=O)c1c(C)c(C(=O)NCc2ccco2)c(C)n1C	1.1	-0.25
Cc1ccc(NC(=O)/C=C/C(=O)O)c([N+](=O)[O-])c1	0.26	0.52
O=C(Cc1cccs1)N/N=C/C=C/c1ccccc1	0.13	0.27
CN1c2ccccc2C(=O)/C(=C\Nc2ccc(F)cc2F)S1(=O)=O	0.78	-0.1
CC(NC(=O)CC(c1ccccc1)c1cc(Cl)ccc1O)c1ccccc1 (centres undefined)	1.6	-0.99
COc1cccc(N2CCN(C3CC(=O)N(c4ccc(C)c(Cl)c4)C3=O)CC2)c1 (centres undefined)	0.92	0.22
O=C1CCN(Cc2ccc(O)cc2)CCN1[C@H](CO)Cc1ccccc1	1.1	-0.68
COc1cc(/C=C/c2ccc3cccc(OC)c3n2)c(O)c([N+](=O)[O-])c1	0.63	3.4
N#CC1(NC(=O)COC(=O)c2cccc(-n3cnnn3)c2)CCCCC1	1.6	-1
COc1cc(/C=N/n2cnnc2)ccc1OS(=O)(=O)c1ccccc1[N+](=O)[O-]	0.85	0.72
CC(C)CN(CCNC(=O)CN1C(=O)CSc2ccc(S(=O)(=O)N3CCOCC3)cc21)CC(C)C	1.6	0.59

5 records picked at random from the list so far, as already listed:
SMILES	KCNQ2 pot	KCNQ2 pot baseline
O=C1CCN(Cc2ccc(O)cc2)CCN1[C@H](CO)Cc1ccccc1	1.1	-0.68
O=C(Cc1cccs1)N/N=C/C=C/c1ccccc1	0.13	0.27
COc1cc(/C=C/c2ccc3cccc(OC)c3n2)c(O)c([N+](=O)[O-])c1	0.63	3.4
CCOC(=O)c1c(C)c(C(=O)NCc2ccco2)c(C)n1C	1.1	-0.25
COc1cc(/C=N/n2cnnc2)ccc1OS(=O)(=O)c1ccccc1[N+](=O)[O-]	0.85	0.72

Next part.
SMILES	KCNQ2 pot	KCNQ2 pot baseline
Cc1ccsc1/C=N/NC(=O)c1ccc2nc[nH]c2c1	0.67	-0.68
COc1ccc(/C=N/NC(=O)CN2CCS(=O)(=O)CC2)cc1	1.9	0.02
O=[N+]([O-])c1ccc(NCc2ccccc2)nc1	0.48	-0.28
Nn1cnc2sc3c(c2c1=O)CCC3	1.6	0.16
COC(=O)CC(CP(=O)(O)CN(C)C=O)C(=O)OC (centres undefined)	0.26	0.73
Cc1ccc(C(=O)NC(=S)Nc2ccc3[nH]c(=O)[nH]c3c2)cc1	0.05	0.08
O=C(C1Cc2ccccc2CN1S(=O)(=O)c1ccc(F)cc1)N1CCOCC1 (centres undefined)	1.4	0.36
COc1ccccc1CNC(=O)COC(=O)c1ccc(Cl)c(N)c1	0.84	-0.62
CCCCCCN(C(=O)CCCCCN1C(=O)NC(c2ccc(-c3ccccc3)cc2)C(C(=O)OCc2ccccc2)=C1C)C(C(=O)NCCCC)c1ccc(-c2ccccc2)cc1 (centres undefined)	2.8	0.47
Cc1cc(C)c2cc(C#N)c(NCCCNC(=O)CCC(=O)O)nc2c1	0.09	0.41
O=c1cc(CN2CCC(Cc3ccccc3)CC2)nc2sccn12	0.82	0.83
CCOC(=O)Cn1nc(C)n(-c2ccc(C(C)C)cc2)c1=O	0.67	-1.3

A section taken from the entries so far, as a working copy:
SMILES	KCNQ2 pot	KCNQ2 pot baseline
Cc1ccsc1/C=N/NC(=O)c1ccc2nc[nH]c2c1	0.67	-0.68
COc1ccc(/C=N/NC(=O)CN2CCS(=O)(=O)CC2)cc1	1.9	0.02
O=[N+]([O-])c1ccc(NCc2ccccc2)nc1	0.48	-0.28
Nn1cnc2sc3c(c2c1=O)CCC3	1.6	0.16

Other structures
SMILES	KCNQ2 pot	KCNQ2 pot baseline
C/C=C/c1ccc(OCCOCCNCc2ccccc2)c(OC)c1	0.43	-1.4
CCc1cc2c(CN3CCN(CCO)CC3)cc(=O)oc2cc1O	0.97	-0.22
CC(C)CN1C(=O)C(=O)N(CC(=O)N2CCC(Cc3ccccc3)CC2)C1=O	1.5	1.4
Cc1ccc2cc(CN(CC3CCCO3)C(=S)NCc3ccco3)c(=O)[nH]c2c1C (centres undefined)	0.01	-0.47
Cc1cc2nc(-c3ccc(SCc4ccc(C#N)cc4)nc3)[nH]c2cc1C	0.88	0.93
COc1cc(C(=O)Nc2ccc(C(=O)c3cccs3)cc2)cc(OC)c1OC	0.41	-0.13
Cc1cc(C)c(C#N)c(SCC(=O)C(C)(C)C)n1	0.3	0.66
COc1cccc(NC(=O)CN2CCC(C)CC2)c1	0.02	2.4
COCCSc1ccccc1C(=O)N1CCN(c2ccccc2OC)CC1	1.7	-1.6
Cc1cccc(-c2nnc(SCC#N)n2Cc2ccccc2)c1	1	0.6
Cc1cc(CCN2CCC(=O)NC2=O)ccc1OC(C)C	1.1	-0.79
Cc1ccc(C(=O)NCCNS(C)(=O)=O)cc1	1.2	-0.01
Cc1cc(=S)nc(-c2ccccn2)[nH]1	2.4	1.5
Fc1ccc(CSc2nnc(-c3cccnc3)o2)cc1	2.3	-1.6
C=CCNCC(=O)Nc1sc2c(c1C(=O)Nc1ccc(OC)cc1OC)CCC2	0.37	1.5
COc1ccc2oc(C(=O)OCC(=O)NC3CC3)c(C)c2c1	0.71	0.01
COC(=O)Nc1nnc(/C=C/c2ccc(OC)cc2)s1	1.6	-0.71
Cc1ccc(Nc2ncccc2C(=O)NCc2cccs2)c(C)c1	4.7	0.29
COC(=O)CSC1=C(C#N)C(c2cccc(F)c2)CC(=O)N1 (centres undefined)	0.76	-0.08
CC1(C(=O)NCCCNc2ncc(C(F)(F)F)cc2Cl)C=CCN1C(=O)c1ccccc1 (centres undefined)	2.1	2.4
Cc1nc2cc(NC(=O)Nc3cccc([N+](=O)[O-])c3)ccc2n1C	0.05	-1.5
Cc1ccc(-c2nn3cnnc3c3ccccc23)cc1C	2.8	-1.5
Cc1nc2ccccc2c(=O)n1/N=C1\C(=O)N(C)c2ccccc21	0.14	0.08

Bioassay records: PubChem, Johns Hopkins Ion Channel Center

Some of the compounds tested, so the mix of outcomes need not match the whole.
